KSHV LANA nucl – LANA-nucleosome interaction inhibition | actives 0.3% (n = 51,000) | AID 720717 | z-score (test concentration not listed) | FITC-LANA1-23 / chicken nucleosome fluorescence polarization; active compounds read low;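 active = both repeat wells score below -2 in polarization z-score versus plate sample wells, excluding overly bright wells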;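 also: 100 nL library stock added to about 30 µL; numbers are from one replicate; some results filed as inactive read as strong as hits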
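Material: Purified chicken nucleosomes with FITC-labelled LANA N-terminal peptide (1-23) | Reagent: 50 nM FITC-LANA1-23 probe | Medium: TEN-BT buffer, pH 7.5 | Times: 10–45 min incubation at room temperature | Detection: Fluorescence polarization | Replication: Duplicates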
Ab BasE inh – inhibitors of Acinetobacter baumannii siderophore enzyme BasE; purified BasE, fluorescence polarization binding displacement; inhibition, % (no concentration beside the values); actives 0.1% (n = 84,000); AID 485350;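 active = both replicates above 25% with normal brightness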;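 also: 0% = negative plate control signal and 100% = positive plate control signal; stock transfer was 100 nL into about 30 µL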
An asterisk follows results filed as active; / = not tested or not shown; & = joins results of further samples. Some of the compounds tested (hit frequency here may not be typical).

Every second line gives: KSHV LANA nucl, Ab BasE inh
COC(Cn1c(-c2cccc(S(=O)(=O)N(C)C)c2)n[nH]c1=S)OC
  /, 2.9
O=C(CSc1ncccn1)NC1CC2CCC1C2 (configuration not stated)
  0.0965, 1.0
Cc1cc(C(=O)Nc2ccc(S(N)(=O)=O)cc2)no1
  -0.139, 1.1
CCOc1ccc(NC(=S)C(C#N)=C2N(C)c3ccccc3N2C)cc1
  /, 3.4
O=C(O)COc1cc(OCC(=O)O)c2c(-c3ccccc3)cc(=O)oc2c1
  /, 3.6
O=C1C=C(NCCN2CCOCC2)CC(c2ccccc2)C1 (configuration not stated)
  0.562, -1.3
CC(C)CN(CC(C)C)S(=O)(=O)c1csc(C(N)=O)c1
  -0.196, 0.0
O=c1c(F)cn(C2CCCO2)c(=O)n1Cc1ccc(Cl)cc1 (configuration not stated)
  /, 0.8
CCc1nnc(SCC(=O)Nc2ccc3c(c2)OCO3)n1CC1CCCO1 (configuration not stated)
  0.823, -0.3
CCNC(=O)CC1C(=O)N(c2ccc(OC)cc2)C(=O)N1CCOC (configuration not stated)
  -0.571, 0.9

(continued)
Every second line gives: KSHV LANA nucl, Ab BasE inh
O=c1ccc(-c2n[nH]c(=S)n2-c2ccc(F)c(Cl)c2)n[nH]1
  -0.714, 1.2
Cc1cc(NS(=O)(=O)c2ccc3c(c2)OCCO3)no1
  /, -1.0
Cn1c(C(C#N)C(=O)c2ccccc2Br)nc2ccccc21 (configuration not stated)
  -0.159, 9.8
CC1CCCCC1NC(=O)CN1CCC(NC(=O)c2cccc(F)c2)CC1 (configuration not stated)
  0.854, 0.0
O=C(CCn1cccc1)NCCN1CCCCCC1
  -0.705, -1.4
Clc1ccc(-c2nc(N3CCC4(CC3)OCCO4)c3ccccc3n2)cc1
  -0.185, 2.6
O=C1c2ccccc2-c2nn(C(=O)c3ccc(Br)s3)c3cccc1c23
  /, 1.9
CCOCc1c(C(=O)OCCOc2ccccc2)oc2ccccc12
  /, 1.7
NS(=O)(=O)c1ccc(NC(=O)CCC(=O)Nc2ccc(S(N)(=O)=O)cc2)cc1
  0.811, 1.4
CCCCN1C(=O)/C(=C\C(=O)NC(N)=O)c2ccccc21
  /, 1.5

Another view of part of the listing above.
> O=c1ccc(-c2n[nH]c(=S)n2-c2ccc(F)c(Cl)c2)n[nH]1
  KSHV LANA nucl = -0.714
  Ab BasE inh = 1.2

> Cc1cc(NS(=O)(=O)c2ccc3c(c2)OCCO3)no1
  KSHV LANA nucl = /
  Ab BasE inh = -1.0

(cont.)
Every second line gives: KSHV LANA nucl, Ab BasE inh
COC(=O)CSCc1n[nH]c(=O)c2ccccc12
  /, 2.1
CC(=O)Nc1ccc(C(=O)c2ccccc2)cc1
  0.358, 4.1
CC1(C)Cc2ccccc2-c2nnc(SCC(N)=O)n21
  0.514, 2.2
CC(=O)Nc1n[nH]c(-c2ccc(C)cc2)n1
  0.271, 0.6
CC(=O)NNc1nc(Cl)nc(N(C)C)n1
  -0.296, 2.1
O=C(O)c1ccccc1C(=O)OCc1ccc(F)cc1F
  -0.033, 2.1
Cc1cc(C(F)(F)F)c2c(=O)n3[nH]c(C)cc3nc2n1
  /, -6.0
CC(Sc1nncn1C)C(=O)N(C)c1ccccc1 (configuration not stated)
  /, -1.9
CNC(=O)COc1ccccc1C(=O)Nc1ccccc1
  /, 2.6
O=C(NCC1CCCO1)c1cccc(C(=O)NCC2CCCO2)c1 (configuration not stated)
  -0.141, 1.7

The listing continues:
Every second line gives: KSHV LANA nucl, Ab BasE inh
O=C(O)c1ccccc1C(=O)c1ccc2c(c1)CCC2
  -0.223, /
Cc1cc(=O)oc2cc(OCC(=O)N3CCCC3C(=O)O)ccc12 (configuration not stated)
  /, -1.4
CCCN1CSC(=S)N(CCC)C1
  -0.0275, 0.4
CCc1n[nH]c(=S)n1/N=C1\C(=O)N(C)c2ccccc21
  /, -0.5
COc1ccc(C(=O)c2c(/C=C/N(C)C)oc3ccc(OC)cc23)cc1
  1.82, -3.1
Cc1n[nH]c(C)c1C(C)C(=O)Nc1ccc(CN2CCOCC2)cc1 (configuration not stated)
  -0.232, -0.4
COc1ccc(OC)c2sc(NC(=O)/C=C/c3cccs3)nc12
  0.141, 2.9
Cc1ccc(C(=O)Oc2c(C)cc(-c3nn(C)c(=O)c4ccccc34)cc2C)cc1
  /, 1.1
Cc1cccn2c(=O)c3cc(C(=O)NCC4CCCO4)c(=N)n(C4CCCCC4)c3nc12 (configuration not stated)
  /, 2.2
CN(C)c1ccc(NC(=O)/C=C/c2ccccc2)cc1
  0.315, 2.2

Continued.
Every second line gives: KSHV LANA nucl, Ab BasE inh
O=c1n(CCCN2CCN(c3cccc(Cl)c3)CC2)nc2ccccn12
  0.422&-0.374&-0.283&0.346, -1.3&-0.9
CCOC(=O)c1cnn2c(C)cc(-c3ccc(F)cc3)nc12
  -0.179, 0.5
CCN1C(=O)C(=Cc2cccn2-c2ccc(N(C)C)cc2)C(=O)N(CC)C1=S
  -0.153, 9.7
COc1ccc(NS(=O)(=O)c2coc(C(N)=O)c2)cc1
  3, -0.2
COC(=O)c1c(C)oc2ccc(NS(=O)(=O)c3ccc(OC)cc3)cc12
  0.131, 0.8
CN(C)S(=O)(=O)c1ccc(/C(O)=C2\C(=O)C(=O)N(Cc3cccnc3)C2c2cccnc2)cc1 (configuration not stated)
  2.94, -1.0
CCOC(=O)C1=C(C)Nc2ccccc2N=C1N
  /, 1.6
CC(C)(C)CC(C)(C)N=C1NS(=O)(=O)c2ccccc21
  -0.351, -0.3
O=C(O)CNc1nc(C(F)(F)F)nc2c1cnn2Cc1ccccc1
  /, 0.0
CN(C)CCOC(c1ccccc1)c1ccccc1 (tested in a mixture with another compound)
  0.433&-0.356&-0.478, -3.1&-2.7

(listing goes on)
Every second line gives: KSHV LANA nucl, Ab BasE inh
Cn1c(SCC(=O)NC(C)(C)C)nc2cccnc21
  0.0575, 0.9
CC1CCc2nc3ccccc3c(C(=O)O)c2C1 (configuration not stated)
  -0.339, -0.1
Cc1ccc2c(CC(=O)NCCc3ccc(S(N)(=O)=O)cc3)coc2c1
  /, 0.5
CCOc1ccc(CNC(=O)C2CCCN(S(=O)(=O)N3CCOCC3)C2)cc1 (configuration not stated)
  2.9, -1.9
O=C(CN1CCCC1)N/N=C/c1ccc(-c2cccc(Cl)c2Cl)o1
  0.238, -10.6
CCN(CC)S(=O)(=O)c1cccc(-c2nnc(C(=O)c3ccc(C(F)(F)F)cc3)o2)c1
  /, 0.8
O=C(Nc1nccs1)C12CC3CC(C1)CC(C(=O)Nc1nccs1)(C3)C2
  /, -0.3
Cc1cc(C(=O)COC(=O)/C=C/c2ccc3c(c2)OCO3)c(C)n1C1CC1
  /, 0.0
C=CCn1cc(/C=C(/C#N)C(=O)OCC)c2ccccc21
  0.391, 0.3
O=C(O)Cn1ccc(C(F)(F)F)n1
  /, 1.4

Next section
Every second line gives: KSHV LANA nucl, Ab BasE inh
S=C1NCN(Cc2cccs2)CN1
  /, -9.7
CCOC(=O)c1cccc(NC2c3ncccc3C(=O)N2c2ccc(C)cc2)c1 (configuration not stated)
  0.072, -0.6
CC(C)NS(=O)(=O)c1ccc(OCC(=O)O)c(Cl)c1
  -1.13, 0.0
COc1ccc(-c2noc(CNC(=O)C3CCCCC3)n2)cc1
  -0.617, 3.0
c1ccc(N=P(N2CCOCC2)(N2CCOCC2)N2CCOCC2)cc1
  /, 0.2
CCNc1nc(-c2ccccc2)no1
  -0.31, 1.2
CCn1c(SCC(=O)C23CC4CC(CC(C4)C2)C3)nnc1-c1ccco1
  /, 0.7
O=C(CNC(c1ccccc1)c1ccc(Cl)cc1)N1CCNC1=O (configuration not stated)
  /, -1.7
Nc1sc(=S)nc2ccccc12
  /, 3.4
CCOc1ccccc1NC(=O)C1CCCN1C(=O)c1cccs1 (configuration not stated)
  /, -2.6

Given field by field: 4 of the compounds above.
CC(C)NS(=O)(=O)c1ccc(OCC(=O)O)c(Cl)c1
  KSHV LANA nucl: -1.13; Ab BasE inh: 0.0
CCNc1nc(-c2ccccc2)no1
  KSHV LANA nucl: -0.31; Ab BasE inh: 1.2
S=C1NCN(Cc2cccs2)CN1
  KSHV LANA nucl: /; Ab BasE inh: -9.7
Nc1sc(=S)nc2ccccc12
  KSHV LANA nucl: /; Ab BasE inh: 3.4

Next results.
Every second line gives: KSHV LANA nucl, Ab BasE inh
CC(=O)OC1C=C2C(Cl)=C[C@@H]3[C@H](CC[C@@]4(C)[C@H]3CC[C@]4(OC(C)=O)C(C)=O)[C@@]2(C)CC1 (some centres not stated)
  0.394, /
COc1ccc(CCNC(=S)N2CCCC(C(F)(F)F)C2)cc1 (configuration not stated)
  /, 0.8
C[C@@H](C(=O)N1CCN(c2ccccc2)CC1)N1C(=O)C2CC=CCC2C1=O (some centres not stated)
  /, -0.5
O=C(Nc1ccc(N2CCCCC2)cc1)c1ccncc1
  /, 2.9
Cc1c(C(=O)/C=C/N(C)C)nnn1-c1cccc(Cl)c1Cl
  0.463, /
COc1ccccc1C(=O)CSc1cccc[n+]1[O-]
  /, 0.4
CCOC(=O)c1c(C)[nH]c(C(=O)CN2CCCCC2)c1C
  /, 0.8
COC(=O)CSc1nc(-c2ccccc2)cc(C(F)(F)F)n1
  0.723, -0.3
CCc1cc(C(=O)OC)c(NC(=O)CN2CCN(c3ccccc3)CC2)s1
  0.663, -1.1
O=c1[nH]c(CN(CCO)Cc2nc3sccc3c(=O)[nH]2)nc2sccc12
  /, 2.5

Continued:
Every second line gives: KSHV LANA nucl, Ab BasE inh
Cc1ccc(-c2nnc(CCC(=O)NCc3ccccc3CN3CCCC3)o2)cc1
  /, 0.7
O=C(NC(=S)Nc1ccccc1Cl)c1ccc(Cl)cc1
  /, 1.3
Cc1nc(C)c(C(=O)NC2CCCCCC2)s1
  0.216, -0.1
CC12CCC(CC(=O)c3ccccc3)(CC1)CC2
  /, 1.1
Cc1cc(OC(=O)c2ccco2)nc(SCc2c(Cl)cccc2Cl)n1
  /, 0.3
C=CCC12CCC(=O)C=C1CCCC2=O (configuration not stated)
  -0.352, 3.8
O=C(CSc1nc(C(F)(F)F)cc(=O)[nH]1)NCc1ccco1
  1.55, -2.1
Clc1cccnc1N1CCOCC1
  0.129, /
CCOc1ccc(S)cc1
  /, 2.8
O=c1[nH]ncc(N2CCCCC2)c1Cl
  /, 1.1

New compounds follow
Every second line gives: KSHV LANA nucl, Ab BasE inh
Nc1c(N(Cc2ccco2)C(=O)c2ccccc2)c(=O)[nH]c(=O)n1Cc1ccccc1
  /, 1.8
COc1ccc(Nc2cc(C(=O)NCCCN3CCOCC3)c3ccccc3n2)cc1OC
  0.412, 2.9
COc1cc(OC)cc(C(=O)Nc2cccc3nsnc23)c1
  /, 2.2
CC(Cc1cccs1)NC(=O)Nc1ccccc1 (configuration not stated)
  /, -1.2
CC(=O)Nc1cccc(N(C)S(C)(=O)=O)c1
  -1.37, -3.2
FC(F)(F)c1cccc(-c2nnnn2-c2cccc(Cl)c2)c1
  0.627, /
COc1ccc(-n2c(O)c(/C=N/N(C)C)c3ccccc3c2=O)cc1
  0.547, -5.0
O=C(NCCc1nnc2ccc(SCC(=O)N3CCCC3)nn12)c1ccccc1
  0.631, -0.8
C=C(C)CN1N=C(C(C)(C)C)CC1=O
  0.737, -1.2
CCN(CC)CCNc1c2c(nc3cc(-c4ccc(OC)c(OC)c4)nn13)CCC2
  -0.598, -1.8

Later entries.
Every second line gives: KSHV LANA nucl, Ab BasE inh
O=C(OCCN1CCCCC1)c1ccc(F)cc1
  1.66, -3.8
CCNC(CC(=O)Nc1ccc(O)cc1)C(=O)O (configuration not stated)
  -0.0855, -1.3
COc1ccc(C)cc1NC(=O)C(Sc1nnc(C2CC2)n1C)c1ccccc1 (configuration not stated)
  /, -0.3
O=C1CCCc2ccccc2N1
  -1.41, 1.2
CCCC1(C(=O)OC)NC(c2ccc(OC)c(OC)c2)C2C(=O)N(c3ccc4c(c3)OCO4)C(=O)C21 (configuration not stated)
  -1.08, 0.6
Cc1cc(C(=O)CSc2nnc(Cc3ccccc3)o2)c(C)n1CCc1ccccc1
  /, 2.5
Cc1cc2c3c([nH]c2cc1S(=O)(=O)NC1CC1)CCCC3=O
  -0.446, 0.7
CNC(=O)n1cc(-c2ccccc2)c(C)n1
  /, 0.7
CN(C)c1ccc(CNC(=O)CC2(CC3=NS(=O)(=O)c4ccccc4N3)CCCC2)cc1
  -0.0215, 0.7
C/C(=N\NC(=O)CN1C(=O)COc2ccccc21)c1cc2cc(Cl)ccc2o1
  /, 1.9

Going on with the list:
Every second line gives: KSHV LANA nucl, Ab BasE inh
O=C(Cn1nnc(-c2ccccc2)n1)OC1CCOC1=O (configuration not stated)
  /, 0.9
O=S(=O)(Nc1cccc(-c2nnc3n2CCCCC3)c1)c1ccc2c(c1)OCCCO2
  /, 0.8
O=c1c(Cc2ccccc2)c(O)nc2ccccn12
  -0.252, -0.9
C=CCN1C(=O)/C(=C2/C(=O)N(CC=C)c3ccccc32)SC1=S
  0.144, 0.1
COc1cccc(NC(=S)N(C)c2ccc(O)cc2)c1
  /, 1.4
Cn1nc(C(=O)N2CCC(c3ccccc3)C2)c2c1-c1ccsc1CC2 (configuration not stated)
  0.762, 1.3
CCn1c(COc2cccc(C)c2)nnc1SCC(=O)N1C(C)CCCC1C (configuration not stated)
  -0.004, 2.2
Clc1ccc(-c2noc(CSc3ccccc3)n2)cc1
  -0.673, -1.6
